RecA splice inh: Mtb RecA intein splicing inhibitors, primary screen, biochemical, fluorescence, HTS; Protein RecA (Mycobacterium tuberculosis (strain ATCC 25618 / H37Rv)), P9WHJ3; cell-free RecA intein splicing; inhibition, %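 (about 9 µM by stock and volumes)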; actives 0.75% (n = 290,000); in the data active = inhibition above about 30%; inconclusive = no clear call, values can overlap the other calls;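 also: 0% = vehicle wells and 100% = reference inhibitor control wells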
Target sequence (P9WHJ3 whole entry, looked up, canonical isoform): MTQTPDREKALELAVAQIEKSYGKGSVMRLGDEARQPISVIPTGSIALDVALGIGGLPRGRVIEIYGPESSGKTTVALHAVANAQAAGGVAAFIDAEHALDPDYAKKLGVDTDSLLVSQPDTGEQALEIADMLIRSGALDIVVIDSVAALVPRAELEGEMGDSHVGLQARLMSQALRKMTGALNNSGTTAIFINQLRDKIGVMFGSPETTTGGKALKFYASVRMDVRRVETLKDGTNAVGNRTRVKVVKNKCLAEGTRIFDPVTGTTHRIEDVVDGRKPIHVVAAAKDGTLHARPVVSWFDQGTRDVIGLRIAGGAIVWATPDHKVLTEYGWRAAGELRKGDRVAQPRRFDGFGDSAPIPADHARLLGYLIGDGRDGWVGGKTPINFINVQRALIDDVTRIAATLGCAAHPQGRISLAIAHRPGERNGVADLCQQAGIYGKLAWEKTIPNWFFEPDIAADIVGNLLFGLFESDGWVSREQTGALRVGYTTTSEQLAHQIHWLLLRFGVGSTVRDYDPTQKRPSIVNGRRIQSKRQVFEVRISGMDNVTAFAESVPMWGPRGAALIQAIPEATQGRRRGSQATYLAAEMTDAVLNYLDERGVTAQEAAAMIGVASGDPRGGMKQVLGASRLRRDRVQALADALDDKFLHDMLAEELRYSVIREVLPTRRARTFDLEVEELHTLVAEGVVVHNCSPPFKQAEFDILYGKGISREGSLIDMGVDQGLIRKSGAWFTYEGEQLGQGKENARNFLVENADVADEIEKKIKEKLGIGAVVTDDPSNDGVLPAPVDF
Arbovirus inh: antivirals against arbovirus infection, primary screen, cell-based, full library, 10K replicate subset; arbovirus infection cell-based antiviral screen; inhibition, % at 10 µM; actives 0.37% (n = 200,000);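 active = inhibition from about 30%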;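 also: bluetongue infection of BSR cells; cell survival read as ATP light after 72 h; 0% = infected wells without compound and 100% = uninfected wells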
Mtb H37Rv: M. tuberculosis H37Rv growth inhibitors, H37Rv strain (AID 1626) | M. tuberculosis H37Rv growth inhibition; higher % means a stronger effect | inhibition, % at 10 µM; hits with a dose series show IC50 in µM | actives 0.95% (n = 220,000);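 active = confirmed in a dose series; inconclusive = inhibition above 80% but not taken into the dose series; inactive = below 80% or under 30% at every dose of the series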;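 also: bacteria incubated seven days before Alamar blue readout; 0% = bacteria only wells and 100% = bacteria with antibiotic wells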
Mtb betalactam: beta-lactam sensitization of Mtb H37Rv, H37Rv; M. tuberculosis H37Rv growth with meropenem, percent inhibition; hits of this screen are not shown here; inhibition, % at 25 µM; actives 0.27% (n = 330,000); AID 434955, 2010;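 active = about 74% or more and at least 40 points above the plate without the antibiotic, then above 30% in a dose series; inconclusive = first-round hits that could not be retested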;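 also: growth measured after seven days incubation then overnight dye step; 0% = bacteria only wells and 100% = bacteria with antibiotic; twin plates without the antibiotic show which effects depend on it; some results filed as inactive read as strong as hits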
YopH inh: YopH tyrosine phosphatase inhibitors, primary screen, biochemical, fluorescence Ex485/Em525. actives 0.16% (n = 140,000). AID 898, 2007. inhibition, %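 (about 10 µM by stock and volumes)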. YopH tyrosine phosphatase [Yersinia enterocolitica];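 active = inhibition of 50% or more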;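 also: controls were vehicle for no effect and minimum signal wells for full effect; inactives centre near -20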
Arbovirus inh repeat: further read-out of Arbovirus inh, marked with its call; inhibition, %; measured here: 10K subset replicate screen; many hits read low in the repeat;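 first of two repeat runs on a subset; 0% = infected and 100% = uninfected wells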
* marks the source's active call; other numbers are inactive results; ? = inconclusive; / = not tested or not shown.

SMILES	RecA splice inh	Arbovirus inh	Mtb H37Rv	Mtb betalactam	YopH inh	others
CN(CCc1ccccn1)C(=O)c1cccnc1Oc1ccccc1	1.5	/	-2%	-15	/
c1ccc2sc(NC3=NCN(CC4CCCO4)CN3)nc2c1 (stereo unspecified)	0.7	3	-1%	2	/
Cc1c(C(=O)C(=O)N2CCN(C)CC2)c2ccccc2n1C	2.8	12	-8%	-16	/
O=C1Cc2cc(NS(=O)(=O)c3ccc(F)cc3)cc3c2N1CCC3	12	/	/	-3	/
O=C(O)CN(CCc1ccccc1)S(=O)(=O)c1ccccc1	-1.5	/	/	1	/
Cc1c(C(=O)N2CCCCCC2)oc2ccccc12	2.9	1	4%	5	-23
Cc1ccc([N+](=O)[O-])cc1NC(=O)CSc1nncc2ccccc12	3.0	/	/	2	/
O=C(NCCc1ccccc1)c1nc(CS(=O)(=O)c2ccc(Cl)cc2)no1	4.1	/	/	0	/
Cc1cccc(NC(=O)C2CCCN2C(=O)OCC(C)C)c1 (stereo unspecified)	-2.2	6	4%	-4	-30
CN(C)S(=O)(=O)c1ccc(NC=C(C#N)C#N)cc1	-2.1	/	-13%	-7	/
COCCOC(=O)c1sc(=S)n(CCOC)c1N	/	-1	/	4	-24
CCOC(=O)N1CCC(Nc2ncnc3c2cnn3-c2ccc(Cl)cc2)CC1	1.4	-4	-1%	/	-6

The list goes on, overlapping the part above by 6 compounds.
SMILES	RecA splice inh	Arbovirus inh	Mtb H37Rv	Mtb betalactam	YopH inh	others
Cc1ccc([N+](=O)[O-])cc1NC(=O)CSc1nncc2ccccc12	3.0	/	/	2	/
O=C(NCCc1ccccc1)c1nc(CS(=O)(=O)c2ccc(Cl)cc2)no1	4.1	/	/	0	/
Cc1cccc(NC(=O)C2CCCN2C(=O)OCC(C)C)c1 (stereo unspecified)	-2.2	6	4%	-4	-30
CN(C)S(=O)(=O)c1ccc(NC=C(C#N)C#N)cc1	-2.1	/	-13%	-7	/
COCCOC(=O)c1sc(=S)n(CCOC)c1N	/	-1	/	4	-24
CCOC(=O)N1CCC(Nc2ncnc3c2cnn3-c2ccc(Cl)cc2)CC1	1.4	-4	-1%	/	-6
O=[N+]([O-])c1ccc(N2CCC(O)CC2)nc1	-3.6	-2	-4%	0	-15
Cc1nn2c(C)c(C(=O)Nc3ccccc3)cnc2c1C#N	-2.5	-6	-6%	1	0
COc1cc(CC(=O)OCC(=O)NC2CC2)cc(OC)c1OC	-0.5	-3	-8%	-10	/
C=CCn1c(SCC(N)=O)nnc1-c1cnccn1	-2.3	/	-5%	-9	/
CC(CCc1ccccc1)NC(=O)C1CCN(S(=O)(=O)N2CCCCC2)CC1 (stereo unspecified)	-0.9	-4	-3%	0	-35
OC(CNCCc1ccc(C(F)(F)F)cc1)COc1ccc2ccccc2c1 (stereo unspecified)	/	-42	?	100	-23
COc1ccccc1CN1CC(C(=O)NCc2nccn2C)CCC1=O (stereo unspecified)	0.8	/	/	5	/
O=C1CN(C(=O)c2ccccc2)c2ccccc2N1	-0.1	-6	3%	-12	-10
CCOC(=O)C1CCN(Cc2ccc(OCc3ccccc3)c(OC)c2)CC1	-0.9	/	/	-6	/
CC1CC1C(=O)OCC(=O)NC(=O)NC12CC3CC(CC(C3)C1)C2 (stereo unspecified)	2.5	15	5%	-5	/
CCN1CCN(CC(=O)Nc2ccc(S(=O)(=O)N3C(C)CCCC3C)cc2)CC1 (stereo unspecified)	-1.9	/	/	2	/
O=C(O)c1cccc(NC(=O)c2cccc(NC(=O)C3CCCO3)c2)c1 (stereo unspecified)	0.6	1	-4%	-2	20
Cc1ccc2c(=O)cc(C(=O)Nc3ccc(S(=O)(=O)Nc4onc(C)c4C)cc3)oc2c1	1.9	/	/	-1	/
Cc1ccc(Cl)cc1NC(=O)c1ccccn1	4.2	-6	4%	-9	/
CCOC(=O)c1nc(C)nc(Sc2n[nH]c(-c3ccccc3)n2)c1C	2.9	/	-5%	-5	/
CC(C)=CCc1c(O)ccc(C2COc3c(CC=C(C)C)c(O)cc(O)c3C2=O)c1O (stereo unspecified)	/	/	-8%	-5	/
Cc1cccc(NC(=O)CSc2nc(NS(=O)(=O)c3ccccc3)cc(=O)[nH]2)c1	-2.0	-2	9%	10	/
COc1cc(C(c2sc3nc(C)nn3c2O)N2CCN(c3ccccc3)CC2)cc(OC)c1OC (stereo unspecified)	1.1	13	-9%	3	-29
O=C1Nc2ccccc2N(O)N1c1cc(-c2ccccc2)[nH]n1	-4.4	3	-6%	0	/
COc1ccccc1CNC(=O)c1ccccc1OC	0.9	2	4%	13	-8
COC(=O)c1ccc2c(=O)n(CC3CCCO3)c(=S)[nH]c2c1 (stereo unspecified)	-0.2	0	-1%	-8	-33
Cc1cccc([C@@H]2[C@@H]3C(=O)N(Cc4ccccc4)C(=O)[C@@H]3[C@]3(Cc4ccccc4)C(=O)N(c4cccc(Cl)c4)C(=O)N23)c1	5.2	/	/	-1	/
CC(=O)Nc1c2c(nn1-c1ccc(C)cc1C)CSC2	-1.3	2	-10%	-5	-32
Nc1nc(C(F)(F)F)cc(=O)n1N	0.3	1	-6%	1	/
O=C(N/N=C/c1c(O)n(Cc2ccccc2)c(=O)[nH]c1=O)c1ccccc1O	21	58*	13%	3	-7
CCOC(=O)N(C)S(=O)(=O)c1ccccc1[N+](=O)[O-]	-5.3	7	3%	2	/
CC(C)C(C(=O)NCc1ccco1)N(C(=O)CNS(=O)(=O)c1ccccc1)C1CCCC1 (stereo unspecified)	-2.2	1	-2%	-2	-40
Cc1cc2nc(C(C)(C)C)cc(N)n2n1	-0.1	3	-8%	-7	/
COc1cccc(/C=N/Nc2nnc3c(n2)[nH]c2ccccc23)c1OC	-4.3	/	-1%	-9	/
CCCCCc1ccc(CC(=O)O)cc1	2.8	7	/	-4	-46
CCOC(=O)CNC(=O)C(Cc1ccccc1)NS(=O)(=O)c1ccc2c(c1)CCC(=O)N2 (stereo unspecified)	-1.4	/	-6%	-12	2
Cc1c(CCC(=O)O)c(=O)oc2cc3occ(-c4ccc(Cl)cc4)c3cc12	-0.8	/	/	70	/
CC(=O)Nc1ccc2c(c1)CN(c1cc(C)ccc1C)CO2	0.6	3	3%	-1	-23
Nn1c(Cc2cccc3ccccc23)nnc1SCc1c(F)cccc1Cl	2.6	0	8%	5	-13
O=S(=O)(NCCc1ccccc1)c1ccc(Br)cc1	3.7	/	/	-6	/
CN(C)CCCNc1oc(-c2ccccc2Cl)nc1S(=O)(=O)c1ccc(F)cc1	2.3	/	/	?	/
Clc1ccc(-c2nnc(CNC3CC3)o2)cc1	-7.6	-13	3%	-3	-48
CCc1ccc(C(=O)Nc2ccc(C)c(NS(C)(=O)=O)c2)cc1	1.3	/	1%	1	/
CCOC(=O)N1CCN(C(=O)COC(=O)c2oc3ccc(OC)cc3c2C)CC1	0.2	/	/	-15	/
CCc1ccc(C(=O)Nc2ccc3nc(C)ccc3c2)cc1	0.9	/	/	0	/
CCOc1nc(C)cc(C)c1S(=O)(=O)c1cccc(C)c1	2.5	-7	7%	5	/
O=c1cc(-c2cccc([N+](=O)[O-])c2)[nH][nH]1	96*	-7	2%	-2	-27
Fc1c(F)c(F)c(N2CCNCC2)c(F)c1F	-29	3	1%	1	/
Cc1ccc(C)n1NC(=O)c1cccs1	-0.4	7	-13%	-5	17
COc1cc(CNn2nnnc2N)ccc1OCc1c(Cl)cccc1Cl	2.5	4	4%	-6	-8
CCCOc1ccc(N2C(=O)CC(N3CCOCC3)C2=O)cc1 (stereo unspecified)	0.1	-3	6%	0	-2
O=C(NNc1ccc([N+](=O)[O-])cc1[N+](=O)[O-])c1ccco1	-0.9	/	/	-1	/
NNc1nc2c(Cl)c(Cl)ccc2s1	-0.2	20	66%	86	-24

Part of the list above in order of heavy-atom count, low to high.
SMILES	RecA splice inh	Arbovirus inh	Mtb H37Rv	Mtb betalactam	YopH inh	others
O=C(NCCc1ccccc1)c1nc(CS(=O)(=O)c2ccc(Cl)cc2)no1	4.1	/	/	0	/
CC(CCc1ccccc1)NC(=O)C1CCN(S(=O)(=O)N2CCCCC2)CC1 (stereo unspecified)	-0.9	-4	-3%	0	-35
CCOC(=O)CNC(=O)C(Cc1ccccc1)NS(=O)(=O)c1ccc2c(c1)CCC(=O)N2 (stereo unspecified)	-1.4	/	-6%	-12	2

(further entries)
SMILES	RecA splice inh	Arbovirus inh	Mtb H37Rv	Mtb betalactam	YopH inh	others
Cc1cc(O)c(Sc2ccc(Cl)cc2)c(=O)[nH]1	-1.6	/	/	9	/
CCOCCn1c(COc2ccccc2)nc2ccccc21	0.9	-1	-5%	1	-13	Arbovirus inh repeat=0
CN(Cc1cnccn1)Cc1ccccc1OCC(O)CN1CCc2ccccc2C1 (stereo unspecified)	-0.3	-4	5%	-1	/
Cc1ccc(NC(=S)NC(=O)CC2CC(C)(C)OC2=O)cc1 (stereo unspecified)	1.0	8	-4%	6	/
Cn1c2c(c(=O)n(C)c1=O)C(c1ccc(O)cc1)Nc1ccccc1O2 (stereo unspecified)	-0.6	-4	/	4	-14
CC(C)NC(=O)c1onc(CSc2ccc(Cl)cc2)c1C(=O)NC(C)C	4.7	/	1%	-1	/
N=C1CCCN1CC(=O)c1ccc(Cl)cc1	-0.1	-16	-9%	2	-6
COc1cc(C)c(C)cc1S(=O)(=O)N1CCN(Cc2ccccc2)CC1	2.3	3	2%	6	-21	Arbovirus inh repeat=2
CCOC(=O)C1=C(C)NC(SCC(N)=O)=C(C#N)C1c1ccncc1 (stereo unspecified)	-2.0	8	-7%	3	-39
COc1ccc(/C=N/OCc2ccc(Br)cc2)c(OC)c1	5.3	/	/	51	/
COc1ccc(CCN(C)C(=S)NC(=O)c2ccc(F)cc2Cl)cc1OC	1.4	6	7%	-7	/
Cc1cccc(NC(=O)CSc2nc(=O)n(CCCN3CCOCC3)c3c2CCCC3)c1	-1.0	/	/	-12	/
O=C(CSc1nc2ccccc2[nH]1)NC(=O)NCc1ccco1	-1.0	1	0%	-3	-31
Cn1c(CSc2ncccn2)nnc1SCC(=O)N1CCCC1	-0.5	0	-8%	-4	/
Cc1ccc(-n2c(Cn3cnc4ccccc43)nnc2SCC(=O)O)cc1	6.3	-1	-2%	1	-28
Cc1ccccc1-n1c(SCC(=O)N/N=C/c2c(C)nn(-c3ccccc3)c2C)nc2ccccc2c1=O	7.3	-28	?	99	3
NC(=O)c1ccccc1OCC(=O)N1CCc2ccccc2C1	-5.1	/	/	-4	/
O=C(CC(c1ccccc1)c1ccccc1)NCC1CCCO1 (stereo unspecified)	-5.6	4	-2%	4	-30
CN(C(=O)COC(=O)CNC(=O)c1ccccc1F)C1CCCCC1	-0.5	/	/	-4	/
COc1ccccc1-n1nnnc1SCC(=O)Nc1cc(C)on1	2.5	14	1%	0	-23
Cc1cc([N+](=O)[O-])ccc1NCc1ccccc1[N+](=O)[O-]	-3.0	12	-7%	-8	/
COC(CNC(=O)c1ccc2nc(-c3ccccc3)c(-c3ccccc3)nc2c1)OC	-1.8	-1	8%	19	/
Cc1cc(NC(=O)CCC(=O)N(Cc2ccco2)C(C(=O)NC2CCCC2)c2ccccc2)no1 (stereo unspecified)	0.9	/	/	-1	/
Cc1ccc(S(=O)(=O)c2c(N)n(/N=C/c3ccco3)c3nc4ccccc4nc23)cc1	/	-17	5%	7	-15
COc1ccc(CCC(=O)OCC(=O)Nc2ccc(C)c(S(=O)(=O)N(C)C)c2)cc1	2.3	2	-6%	12	-29
COCCCC1CCN(Cc2cn[nH]c2-c2cc(OC)c(OC)c(OC)c2)CC1	3.3	4	-3%	-5	/
Cn1cccc1Cc1nnc(SCC(=O)Nc2nc3ccccc3s2)n1CCc1ccccc1	/	2	-2%	-5	-18
COC(=O)c1cc2c(-c3ccccc3)c(C)c3ccccn3c-2c1C(=O)OC	-4.4	5	15%	81	0
Clc1cccc(Cl)c1Cn1cnc(=NCc2ccco2)c2[nH]cnc21	3.1	-7	5%	69	-39
O=C(CSc1ccc2nnc(-c3ccncc3)n2n1)Nc1nccs1	0.4	6	3%	/	/
N#CC1=C(N)SC(N)=C(C#N)C1C1CC=CCC1 (stereo unspecified)	2.3	-2	-3%	5	-43	Arbovirus inh repeat=0
CCn1ccnc1CN1CCN(CC(C)C)C(CCO)C1 (stereo unspecified)	-2.2	0	-1%	1	/
Cc1ccc(CN2CCNC(=O)C2CC(=O)N(C)C2CCCCC2)cc1 (stereo unspecified)	0.4	/	/	-15	/
CN(C(=O)c1ccccc1-c1ncc[nH]1)C1CCCN(Cc2ccccc2F)C1 (stereo unspecified)	2.0	/	/	8	/
C=CCn1c(=O)c(C(=O)NCc2ccc3c(c2)OCO3)c(O)c2cc(OC)c(OC)cc21	-0.7	/	/	1	/

Screening results from PubChem.

Some of the compounds tested; rates above refer to the full screens.
